RanGTP-Imp inh: inhibitors of RanGTP-importin-beta interaction, primary screen, biochemical, FRET, CFP-Ran, YFP-importin-beta, homogeneous. 1.1% of 300,000 active. inhibition, % (no concentration beside the values). cell-free CFP-Ran/YFP-importin-beta FRET ratio;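 active = most replicates above 15%; inconclusive = exactly half above 15%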;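 note: 0% = DMSO wells and 100% = Ran loaded with GDP instead of GTP; wells of about 40 µL received 100 nL stock; the first replicate is given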
FGF22 binding: shifts melting point of recombinant human FGF22; Q9HCT0; recombinant FGF22 thermal shift, SYPRO orange fluorescence; percent of sucrose octasulfate shift, DMSO zero; calls only at 9.99 µM; 1.5% of 340,000 active;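 active = melting point raised past a set limit in the mean and every replicate; inconclusive = no clear call; three in four hits are not shown here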
HNF4A DNA FP: change in binding of human HNF4 alpha to DNA. P41235. activity change, % at 10 µM. HNF4a-FITC DNA binding, fluorescence polarization, 1 h. 0.3% of 360,000 active; in the data active = activity change above about 30%, passing the limit was not always enough;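 note: controls were the assay level and a saturating level of protein; the project sought stronger binding though the title names inhibitors; some compounds called inactive have numbers as strong as hits; positive values seem to mean higher polarization but the record does not say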
Target sequence (P41235 whole entry, looked up): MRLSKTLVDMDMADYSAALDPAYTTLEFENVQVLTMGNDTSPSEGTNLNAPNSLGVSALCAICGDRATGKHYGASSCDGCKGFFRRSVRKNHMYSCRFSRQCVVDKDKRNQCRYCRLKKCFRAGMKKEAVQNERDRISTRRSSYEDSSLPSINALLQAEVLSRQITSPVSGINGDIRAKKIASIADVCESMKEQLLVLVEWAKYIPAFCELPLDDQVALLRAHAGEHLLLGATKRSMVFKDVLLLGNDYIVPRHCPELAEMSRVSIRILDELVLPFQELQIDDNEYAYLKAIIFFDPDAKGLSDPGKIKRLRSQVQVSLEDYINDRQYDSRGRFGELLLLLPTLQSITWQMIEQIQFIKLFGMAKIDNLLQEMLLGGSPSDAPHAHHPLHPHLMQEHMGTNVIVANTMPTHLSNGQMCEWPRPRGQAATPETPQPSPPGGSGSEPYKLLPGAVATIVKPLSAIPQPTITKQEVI
Vif A3G: HIV-1 Vif–A3G interaction blockers – biochemical, TR-FRET, GST-Vif 1-94, biotin-A3G peptide, dose response retest, primary screen (AID 1117319); TR-FRET GST-Vif / biotin-A3G peptide binding; higher % means a stronger effect; test concentration not given here; strong numbers were not always called active; inhibition, %; hits with a dose series show IC50 in µM; 0.57% of 260,000 active;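 active = above the screen mean plus three standard deviations and confirmed in dose response; inconclusive = results disagree or hit not tested in dose response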;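 note: Vif residues 1-94 fused to GST binding biotinylated APOBEC3G peptide 110-148; 0% = full assay without inhibitor and 100% = GST in place of GST-Vif; retest series ran down from 100 µM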
UCH37 inh: blocks the human deubiquitinase UCH37; Q9Y5K5; purified proteasome/UCH37, Ub-AMC cleavage fluorescence; inhibition, % (test concentration not listed); 0.33% of 330,000 active;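 active = mean of two replicates above 20%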;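 note: 0% = compound-free wells with enzyme and 100% = wells lacking proteasome; stock transfer was 100 nL into about 20 µL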
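Schedule: 30 min plus 25 min, room temperature / Material: human UCH37 within purified proteasomes / Technique: AMC fluorescence intensity at 355/460 nm / Buffer or medium: pH 7.4 Tris-HCl (50 mM) with ovalbumin, ATP-MgCl2, DTT / Controls: wells without proteasome as full block, compound-free enzyme plus substrate as uninhibited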
E coli growth: blocks Escherichia coli growth | OD600 absorbance (test concentration not listed) | 0.21% of 330,000 active | OD600, 23 h; hits give low values;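 active = OD600 absorbance below the run mean of sample wells minus 3.6 SD, in any replicate, cut at about 0.56 in these data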;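 note: stock transfer was 300 nL into about 60 µL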
MLL AF4-AF9 inh: inhibitors of human MLL-AF4/AF9 interaction; AlphaScreen, biotin-AF4 peptide binding to FLAG-AF9; inhibition, % at 10 µM; 0.47% of 350,000 active; AID 651704;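 active = every replicate reaching a set inhibition limit, whatever the replicate mean, cut at about 25% in these data; inconclusive = mean inhibition reaches that limit but some replicates miss it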;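 note: 0% = plate neutral control median and 100% = total signal loss; the record names both 10 and 1 µM as test concentration; the first replicate is given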
Target sequence (P42568 whole entry, looked up): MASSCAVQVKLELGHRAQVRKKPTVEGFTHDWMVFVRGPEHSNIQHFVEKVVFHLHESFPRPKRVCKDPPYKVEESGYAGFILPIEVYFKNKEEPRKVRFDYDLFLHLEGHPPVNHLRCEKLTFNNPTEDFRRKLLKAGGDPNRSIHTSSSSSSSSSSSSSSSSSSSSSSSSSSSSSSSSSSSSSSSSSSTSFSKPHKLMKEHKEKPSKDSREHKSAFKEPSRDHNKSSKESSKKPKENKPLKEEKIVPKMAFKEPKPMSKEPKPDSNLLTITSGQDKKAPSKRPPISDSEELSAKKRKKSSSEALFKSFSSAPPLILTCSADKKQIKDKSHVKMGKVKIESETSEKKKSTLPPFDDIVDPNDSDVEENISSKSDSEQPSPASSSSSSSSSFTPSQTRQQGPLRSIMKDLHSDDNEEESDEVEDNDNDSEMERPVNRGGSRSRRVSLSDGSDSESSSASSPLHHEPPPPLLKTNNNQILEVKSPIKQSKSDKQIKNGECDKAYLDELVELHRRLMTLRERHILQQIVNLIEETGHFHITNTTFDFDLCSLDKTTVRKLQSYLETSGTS
The depositor's hits bear a star; i = inactive; ? = inconclusive; · = no result given; & = joins results of further samples.

SMILES	RanGTP-Imp inh	FGF22 binding	HNF4A DNA FP	Vif A3G	UCH37 inh	E coli growth	MLL AF4-AF9 inh
COc1ccc(OC)c(N(CC(=O)NC2CC3CCC2C3)S(=O)(=O)c2ccccc2)c1 (stereo not given)	2.2	i	-0.9	10%	4.3	0.66	2.2
CCC(C)[C@H](N)c1nnc(SCC(=O)Nc2ccc(C)cc2C)o1 (stereo not given in full)	2.8	i	2.2	·	-1.3	0.7	-6.5
COC1=CC(=O)OC(c2ccc(C#N)cc2)C1 (stereo not given)	·	i	5.9	·	·	·	-2.8
COc1ccc(Nc2nnc(SCC3CCCCO3)s2)cc1 (stereo not given)	7.5	i	1.8	-2%	0.7	0.7	-3.2
COc1ccc(S(=O)(=O)N2CCOC2CNC(=O)C(=O)NCCCc2ccccc2)cc1 (stereo not given)	-0.7	i	2.9	·	0.4	0.71	-1.4
CCN(CC(=O)NCCC1=CCCCC1)S(=O)(=O)c1ccccc1	-1.5	i	-0.2	5%	1.9	0.68	6.7
O=c1[nH]c(C(F)(F)F)nc2ccc3ccccc3c12	-2.1	i	-3.1	1%	3.1	0.69	-6.1
CC(=O)C1(O)CCC2C3CC(C)C4=CC(=O)C=CC4(C)C3(F)C(O)CC21C (stereo not given)	·	i	0.7	3%	·	·	-2.7
OCCNc1ncnc2c1ncn2[C@H]1CN(Cc2cccs2)C[C@@H](CO)O1	·	i	-2.7	·	·	·	-9.3
CC(Sc1nnc(NC2CC2)s1)C(=O)Nc1ccc(N2CCOCC2)cc1 (stereo not given)	·	i	-1.2	0%	4.3	0.69	-6.7

Overlap with the part before: four compounds, then new ones.
SMILES	RanGTP-Imp inh	FGF22 binding	HNF4A DNA FP	Vif A3G	UCH37 inh	E coli growth	MLL AF4-AF9 inh
O=c1[nH]c(C(F)(F)F)nc2ccc3ccccc3c12	-2.1	i	-3.1	1%	3.1	0.69	-6.1
CC(=O)C1(O)CCC2C3CC(C)C4=CC(=O)C=CC4(C)C3(F)C(O)CC21C (stereo not given)	·	i	0.7	3%	·	·	-2.7
OCCNc1ncnc2c1ncn2[C@H]1CN(Cc2cccs2)C[C@@H](CO)O1	·	i	-2.7	·	·	·	-9.3
CC(Sc1nnc(NC2CC2)s1)C(=O)Nc1ccc(N2CCOCC2)cc1 (stereo not given)	·	i	-1.2	0%	4.3	0.69	-6.7
Cc1cc(OCC(=O)Nc2ccc(N3CCCC3)cc2)cc(C)c1Cl	?	·	5.0	7%	4.3	0.81	·
CSc1ccc(Cl)c(C(=O)OCC(=O)NCC(C)C)c1	1.8	·	-2.6	4%	-6.1	0.69	·
O=C(Nc1nc(-c2ccc3c(c2)OCCO3)cs1)c1ccc(Br)o1	·	i	4.9	7%	·	·	-10
Cc1ccc(N2CC(=O)N(NC(=O)CN3CCN(c4ccccc4)CC3)CC2=O)cc1	0.5	i	-0.1	7%	3.1	0.64	-1.0
Cn1c(=O)c2c(nc(NCc3ccco3)n2Cc2ccc(Cl)cc2Cl)n(C)c1=O	-0.5	·	-4.2	-3%	2.5	0.68	·
CCn1c(SCC(N)=O)nc2ccccc2c1=O	-2.8	i	-2.2	4%	4.1	0.69	-5.2
CC(C)CN(C(=O)CCC(=O)OC(C)C(=O)Nc1cccc(C#N)c1)c1c(N)n(CC(C)C)c(=O)[nH]c1=O (stereo not given)	6.2	i	5.6	-4%	1.0	0.61	9.9
O=C(c1cc2sccc2n1Cc1ccccc1)N1CCN(c2nc3ccccc3s2)CC1	-1.5	·	0.0	1%	6.4	0.77	·
COc1ccc(CCNc2ncnc3nc[nH]c23)cc1OC	2.5	i	-0.9	-2%	3.5	0.72	4.9
O=C(OCC(=O)N1CCN(C(=O)c2ccco2)CC1)c1cn(-c2ccccc2)nc1-c1ccccc1	3.2	·	-4.5	1%&-3%	0.8	0.7	·
CCOC(=O)C(Cc1ccccc1)C(=O)Nc1cccc2ccccc12 (stereo not given)	-0.5	·	0.7	·	-1.2	0.73	·
COc1ccc(Nc2cc(=O)n(-c3ccccc3)c3c2c(=O)n(C)c(=O)n3C)cc1	-0.1	i	-0.5	3%	0.2	0.66	-2.2
C[n+]1c2cc(N)ccc2cc2ccc(N)cc21	·	i	-99&-100	·	·	·	-2.3&18
COC(=O)c1ccccc1NC(=O)CSc1nc2cccnc2n1C	-0.9	i	-1.6	·	1.7	0.65	-0.8
O=C(Cc1ccc(F)cc1)NC(Cc1c[nH]c2ccccc12)C(=O)O (stereo not given)	1.1	i	-3.0	·	5.0	0.72	-2.8
O=C(c1cc2c(ccc3ccccc32)o1)N1CCN(c2ncc(C(F)(F)F)cc2Cl)CC1	0.9	·	-0.8	1%	0.5	0.72	·
Cc1nc(SCC(=O)N(C)C2CCCCC2)[nH]c(=O)c1Cc1ccccc1	9.2	·	2.4	-1%	0.9	0.7	·
COc1ccc2c(c1)[C@H]1[C@H](CO2)[C@H](c2ccccc2)[C@]2(C)C(=O)Nc3ccc(Br)cc3C(=O)N12	·	i	0.6	·	·	·	1.5
Cc1ccc(CSCC(=O)N2CCN(Cc3ccc4c(c3)OCO4)CC2)cc1	0.8	·	-2.2	0%	4.7	0.7	·
CC(C)(C)C(=O)Nc1cc(NC(=O)C(C)(C)C)cc(C(=O)Nc2cc(C(=O)O)cc(C(=O)O)c2)c1	7.8	·	-2.8	·	-0.7	0.64	·
CCn1c(=O)n(CC)c2cc(S(=O)(=O)NCCOc3ccccc3)c(C)cc21	0.6	·	-0.1	-3%	-1.2	0.69	·
O=C(CSc1ncnc2c1cnn2-c1ccc(F)cc1)NCc1ccc2c(c1)OCO2	1.5	·	1.5	-4%	-0.2	0.69	·
CCN(c1ccccc1)S(=O)(=O)c1ccc(Cl)c(NC(=O)CN(C)Cc2cccc(F)c2)c1	·	i	0.1	·	1.3	0.69	-4.7
CC1CCCN(C(=O)CCS(=O)(=O)c2cc3c(cc2Cl)NC(=O)CO3)C1 (stereo not given)	-0.5	i	0.0	·	3.1	0.79	-0.3
CN1c2ccccc2N(C)C1c1c(O)ccc2ccccc12	0.3	·	0.5	14%	2.0	0.75	·
CCOC(=O)C1=C(c2ccccc2)Nc2ncnn2C1c1ccc(OC)c(OC)c1OC (stereo not given)	-2.7	·	-5.1	9%	0.5	0.71	·
CC(=O)c1cccc(Nc2c3c(nc4ccccc24)CCC3)c1	2.4	i	4.8	-4%	6.3	0.65	-17
CN1CCN(C(c2ccc(F)cc2)c2ccc3cccnc3c2O)CC1 (stereo not given)	·	·	2.4	·	0.1	0.69	·
CCOC(=O)C1CN(S(=O)(=O)c2ccc(F)cc2)C1	2.7	·	0.0	-10%	-0.9	0.66	·
COc1ccc(NC(=O)c2cncn2-c2ccccc2)cc1	?	i	-5.3	·	6.4	0.65	-5.3
Cc1noc(N)c1C1(O)C(=O)Nc2c(Cl)cc(Cl)cc21 (stereo not given)	-0.6	·	-4.0	-4%	-0.4	0.69	0.0
CC(=O)OC(C(=O)NCS(=O)(=O)c1ccc(C)cc1)c1cccnc1 (stereo not given)	1.6	·	1.4	0%	3.3	0.71	·
COc1ccccc1CNc1nc(-c2ccccc2CO)c2sccc2n1	·	i	4.2	·	·	·	-9.7
COc1ccc(C2COc3cc(O)ccc3C2)c(OC)c1O (stereo not given)	-1.2	i	-0.8	·	1.5	0.71	-0.9
CC1CN(C(=S)Nc2ccc(S(N)(=O)=O)cc2)CC(C)O1 (stereo not given)	-1.2	i	-6.5	5%	1.4	0.7	-6.6
COc1ccc(NC(=O)CSc2nnc(-c3ccco3)n2C)cc1	8.0	·	0.8	-1%	0.5	0.67	·
Cc1[nH]nc(SCC(=O)N2CCCCCC2)c1[N+](=O)[O-]	0.4	i	0.2	-2%	3.8	0.65	-21
O=C(NC1CCN(S(=O)(=O)c2ccccc2)CC1)c1cccc(F)c1	3.2	i	-3.0	·	5.0	0.67	0.0
Cc1ccc2c(c1)nnn2C1CCN(CC(=O)Nc2ccc(F)cc2)CC1	-1.1	i	-1.8	-3%	3.3	0.64	2.6
Cn1c(=O)c2c(nc(SCC(=O)O)n2Cc2cc3c(cc2Cl)OCO3)n(C)c1=O	3.5	·	3.6	2%	1.2	0.63	·

Pulled by compound from the list above:
SMILES	RanGTP-Imp inh	FGF22 binding	HNF4A DNA FP	Vif A3G	UCH37 inh	E coli growth	MLL AF4-AF9 inh
O=C(NC1CCN(S(=O)(=O)c2ccccc2)CC1)c1cccc(F)c1	3.2	i	-3.0	·	5.0	0.67	0.0
COc1ccc(NC(=O)CSc2nnc(-c3ccco3)n2C)cc1	8.0	·	0.8	-1%	0.5	0.67	·
Cn1c(=O)c2c(nc(SCC(=O)O)n2Cc2cc3c(cc2Cl)OCO3)n(C)c1=O	3.5	·	3.6	2%	1.2	0.63	·

Further records follow.
SMILES	RanGTP-Imp inh	FGF22 binding	HNF4A DNA FP	Vif A3G	UCH37 inh	E coli growth	MLL AF4-AF9 inh
CS(=O)(=O)N1Cc2cc(C(=O)NCC3CC3)nc(-c3cccc(-c4cccnc4)c3)c2[C@@H]1CCO	·	i	-3.2	·	·	·	-2.6
CCOC(=O)CN(C(=O)CSc1nnc(-c2ccc(OC)c(OC)c2)o1)c1ccccc1	?	·	1.6	-5%	2.7	0.71	·
O=C(COc1ccccc1)N(Cc1ccccc1)c1nc(-c2ccccc2)cs1	2.8	·	0.1	-6%	5.8	0.77	·
C=C1c2ccccc2S(=O)(=O)N(Cc2ccccc2)C1COCc1ccccc1 (stereo not given)	3.4	i	-3.8	-3%	3.8	0.71	1.1
NNC(=O)CCc1ccc(S(=O)(=O)N2CCOCC2)cc1	0.7	i	0.2	5%	0.8	0.67	4.7
CC(C)(C)NC(=O)C(c1ccco1)N(Cc1ccc2c(c1)OCO2)C(=O)c1snc(C(N)=O)c1N (stereo not given)	?	i	-2.0	-10%	-9.3	0.63	-3.3
CCn1c2ccccc2nc2cc3c(cc21)c(Cl)c(=O)c1ccccc13	·	i	6.7	22%	·	·	2.9
COc1ccccc1CNC(=O)C(=O)NCC1OCCN1S(=O)(=O)c1ccccc1 (stereo not given)	3.1	i	0.8	·	3.1	0.69	-0.3
COC(C(=O)Nc1ccc(NC(=O)C(OC)c2ccccc2)cc1)c1ccccc1 (stereo not given)	1.5	i	1.0	5%	3.7	0.69	-3.7
CCN(CC(=O)NC1CCS(=O)(=O)C1)S(=O)(=O)c1ccccc1 (stereo not given)	1.3	i	3.1	·	0.5	0.7	-30
Cc1cc(C)n(-c2cc(C(C)(C)C)nc3c(-c4ccc(Cl)cc4)cnn23)n1	-0.2	·	-0.8	1%	-2.4	0.69	·
COc1ccccc1NS(=O)(=O)c1ccc(O)c(C(=O)OCC(=O)N2c3ccccc3CC2C)c1 (stereo not given)	5.2	i	-4.2	4%	-1.2	0.69	-1.7
CCC(CO)Oc1cc(NCc2cccc(F)c2)c2ncn(C(C)C)c2c1 (stereo not given)	·	i	-1.3	·	2.0	0.67	8.3
O=C1NC[C@H](CCCCN2CCN(CCc3ccccc3)C(=O)C2=O)N(CC2CCCCC2)C1=O	·	i	4.9	·	·	·	0.6
CCOC(=O)c1[nH]c(C)c(C(=O)OCC(=O)N2CC(=O)Nc3ccccc32)c1C	-3.4	i	-6.2	·	3.2	0.67	-1.6
CCOc1ccc(NC(=O)C(=O)N/N=C\c2ccc(CNS(=O)(=O)c3ccccc3)o2)cc1	2.6	i	-4.0	-10%	·	·	-11
COc1ccc(Cl)cc1NC(=O)Nn1cnnc1	-2.2	·	2.6	-3%	0.7	0.67	·
CCN(C(=O)CN1C(=O)S/C(=C\C=C\c2ccccc2)C1=O)C1CCS(=O)(=O)C1 (stereo not given)	-0.1	i	2.1	·	5.6	0.68	-9.7
Cc1cccc(CCNC(=O)Cn2ncc3c([nH]c4ccc(C)cc43)c2=O)c1	?	i	1.7	·	-5.5	0.7	-6.0
CCn1c(CSc2ncccn2)nnc1SCC(=O)N1CCc2ccccc21	3.2	·	2.4	0%	5.0	0.75	·

Not all compounds are listed; the hit share may differ from the screen's.
